GLA inh pH 4.5: blocks human alpha-galactosidase A at pH 4.5. P06280. purified enzyme, 4-MU-alpha-Gal fluorescence, pH 4.5. activity change, negative = inhibition, % at 105 µM. 230,000 tested, under 10 active. AID 1467; inconclusive = small, poorly fitted or top-dose-only inhibition, or a rising curve; inactive = flat fitted curve, though single readings scatter; no compound was filed as active;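 further: 0% = full activity with enzyme and -100% = basal without enzyme; dose as in the result columns while the protocol names 77 µM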
Target sequence (P06280 whole entry, looked up): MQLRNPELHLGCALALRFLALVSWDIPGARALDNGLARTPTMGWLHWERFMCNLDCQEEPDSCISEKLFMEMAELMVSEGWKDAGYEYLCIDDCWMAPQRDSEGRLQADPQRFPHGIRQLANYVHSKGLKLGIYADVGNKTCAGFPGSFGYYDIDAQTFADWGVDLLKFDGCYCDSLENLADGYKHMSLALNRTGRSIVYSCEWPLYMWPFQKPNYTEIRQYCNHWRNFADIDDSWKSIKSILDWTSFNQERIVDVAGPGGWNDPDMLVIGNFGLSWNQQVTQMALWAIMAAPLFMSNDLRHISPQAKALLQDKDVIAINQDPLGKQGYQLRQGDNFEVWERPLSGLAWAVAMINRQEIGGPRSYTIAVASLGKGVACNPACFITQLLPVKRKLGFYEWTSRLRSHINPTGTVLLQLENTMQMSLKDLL
Numbers without * were called inactive; ? = inconclusive; & = joins results of further samples. These rows are one share of the data (hit frequency here may not be typical).

SMILES | GLA inh pH 4.5
CO[C@@H]1CC[C@@]2(C)[C@@H](CC[C@@]3(C)[C@H]2CC=C2[C@H]4CC(C)(C)[C@H](O)[C@@H](OC(C)=O)[C@]4(CO)[C@H](O)C[C@]23C)[C@@]1(C)CO (tested in a mixture with another compound) | 2
CC1CCC(C(C)C)[C@H](O)C1 (stereo partly specified) | 0
O=C(/C=C/c1ccc2c(c1)OCO2)c1cccs1 | -11
COCCN(CCOC)c1nc(C)nc2c1nc(-c1ccccc1)n2CCCN(C)C | -4
CCC(C(N)=O)c1ccccc1 (stereo unspecified) | 0
CCCCC/C=C\C\C=C/C=C/C=C/[C@@H](SCC(N)C(=O)O)[C@@H](O)CCCC(=O)O (stereo partly specified) | -2
OCC1=CC[N+]2(Cc3ccccc3)CCC(O)[C@@H]12 (stereo partly specified) | -2
COC(=O)[C@@]1(Cc2ccc(OC)cc2)[C@H]2c3cc(C(=O)N4CCCC4)n(Cc4cc(C)n(C)n4)c3C[C@H]2CN1C(=O)c1ccccc1 | -6
CC(C)OCCCN1C=C2C(=O)C(C)(OC(=O)C3CCCC3)C(=O)C=C2C=C1c1ccsc1 (stereo unspecified) | 7
CCCCCCN(C(=O)CCCCCN1C(=O)NC(C2CCCCC2)C(C(=O)OCc2ccccc2)=C1C)C(C(=O)NCCCC)c1ccc(OCC(=O)OC)c(C(=O)OC)c1 (stereo unspecified) | 0
CC(C)(C)Cn1nc(-c2ccc(Cl)cc2)c2c(N)ncnc21 | -13
CCCCC[C@H](O)/C=C/C=C\C=C\[C@@H](O)C/C=C\CCCC(=O)O | -2
COC/C=C/C1=CC2=CC(=O)C(C)(OC(=O)c3cnc4ccccc4n3)C(=O)C2=CN1Cc1ccc2c(c1)OCO2 (stereo unspecified) | -7
C[C@@H]1CCC2[C@](C)(CO)[C@@H](O)CC[C@]2(C)[C@]12CCC(CO)(CCO)O2 (stereo partly specified) | 3
CC1(OC(=O)c2cnc3ccccc3n2)C(=O)C=C2C=C(c3ccsc3)OC=C2C1=O (stereo unspecified) | -2
COc1cccc2c1CCC1=CC(=O)CC[C@@]12C | -2
O=S(=O)(c1ccccc1)N(CC(F)(F)F)c1ccc(C(O)(C(F)(F)F)C(F)(F)F)cc1 | -6
CC(=O)OCC1=C(C(=O)O)N2C(=O)[C@@H](NC(=O)CSc3ccncc3)[C@@H]2SC1 | -4
CC(C)(O)C1CC[C@@]2(C)C3CCC4[C@@]5(C)CCCC(C)(C)C5C(O)C[C@]4(C)[C@]3(C)CC[C@@H]12 (stereo partly specified) | 1
CSc1ccc([C@H]2CN3CCC[C@H]3c3ccccc32)cc1 | -8
CC(C)[C@@H](CC(=O)N[C@@H]1CCNC[C@H]1C(=O)N[C@H](CC(=O)N[C@@H](CCC(=O)O)CC(=O)O)Cc1c[nH]c2ccccc12)NC(=O)C[C@H](Cc1ccccc1)NC(=O)[C@@H]1CCCC[C@H]1N | -5
CN[C@H](CC(C)C)C(=O)N[C@H]1C(=O)N[C@@H](CC(N)=O)C(=O)N[C@H]2C(=O)N[C@H]3C(=O)N[C@H](C(=O)N[C@H](C(=O)O)c4cc(O)cc(O)c4-c4cc3ccc4O)[C@H](O)c3ccc(c(Cl)c3)Oc3cc2cc(c3O[C@@H]2O[C@H](CO)[C@@H](O)[C@H](O)[C@H]2O[C@H]2C[C@](C)(N)[C@H](O)[C@H](C)O2)Oc2ccc(cc2Cl)[C@H]1O | 4
CC(=O)O[C@H]1C[C@@]2(C)[C@H](C[C@@H](O)[C@H]3[C@@]4(C)CC[C@@H](O)[C@@H](C)[C@H]4CC[C@@]32C)C1=C(CCC=C(C)C)C(=O)O | -6
Cc1ccnc(N)c1 | -7
CC1(C)C[C@@H]2C(=O)CCC3O[C@@]3(C)CCC21 (stereo partly specified) | 0
CCC[C@@H]1C[C@@]1(CCC)C(NC(=O)c1cccs1)c1ccc(Cl)cc1 (stereo partly specified) | -6
CCC[C@@H]1C[C@@]1(CCC)C(NS(=O)(=O)c1cccc2cccnc12)c1ccc(Cl)cc1 (stereo partly specified) | -5
Cc1nc(Nc2ccccc2)c2nc(-c3ccccc3)n(CCN3CCOCC3)c2n1 | -6
Cc1ccc(C2CC(=O)Oc3cc(C)c(Cl)cc32)cc1 (stereo unspecified) | 6
Cc1ccc2oc(=O)c3c4cc(O)c(O)cc4oc3c2c1 | -2
CC(C)[C@@H](N)C(=O)O | 1
COC(=O)c1ccc(C(/C=C/[C@@H](C)C(=O)N(C)Cc2ccccc2)NC(=O)OCc2ccccc2)cc1 (stereo partly specified) | -6
C[C@H]1C2=C3C(CC[C@H]4C(OCc5ccc(F)cc5C(F)(F)F)OC[C@](C)([C@@H]34)N(C(=O)OC(C)(C)C)C2)C(CO)C1CO (stereo partly specified) | -7
COC(=O)[C@@]1(Cc2ccc(F)cc2)[C@H]2c3cc(C(=O)N(C)C)n(Cc4ccc(C)o4)c3C[C@H]2CN1C(=O)c1ccccc1 | -3
C/C=C/c1ccc(OC(C)[C@@H](O)c2ccc(O)c(OC)c2)c(OC)c1 (stereo partly specified) | -1
c1ccc(Nc2ncnc3ccc(-c4cccnc4)cc23)cc1 | 4

Twelve entries from above, sorted by molecular weight, low to high:
SMILES | GLA inh pH 4.5
Cc1ccnc(N)c1 | -7
CC(C)[C@@H](N)C(=O)O | 1
CC1(C)C[C@@H]2C(=O)CCC3O[C@@]3(C)CCC21 (stereo partly specified) | 0
Cc1ccc2oc(=O)c3c4cc(O)c(O)cc4oc3c2c1 | -2
c1ccc(Nc2ncnc3ccc(-c4cccnc4)cc23)cc1 | 4
C/C=C/c1ccc(OC(C)[C@@H](O)c2ccc(O)c(OC)c2)c(OC)c1 (stereo partly specified) | -1
CCC[C@@H]1C[C@@]1(CCC)C(NC(=O)c1cccs1)c1ccc(Cl)cc1 (stereo partly specified) | -6
Cc1nc(Nc2ccccc2)c2nc(-c3ccccc3)n(CCN3CCOCC3)c2n1 | -6
CCC[C@@H]1C[C@@]1(CCC)C(NS(=O)(=O)c1cccc2cccnc12)c1ccc(Cl)cc1 (stereo partly specified) | -5
COC(=O)c1ccc(C(/C=C/[C@@H](C)C(=O)N(C)Cc2ccccc2)NC(=O)OCc2ccccc2)cc1 (stereo partly specified) | -6
CC(=O)O[C@H]1C[C@@]2(C)[C@H](C[C@@H](O)[C@H]3[C@@]4(C)CC[C@@H](O)[C@@H](C)[C@H]4CC[C@@]32C)C1=C(CCC=C(C)C)C(=O)O | -6
CN[C@H](CC(C)C)C(=O)N[C@H]1C(=O)N[C@@H](CC(N)=O)C(=O)N[C@H]2C(=O)N[C@H]3C(=O)N[C@H](C(=O)N[C@H](C(=O)O)c4cc(O)cc(O)c4-c4cc3ccc4O)[C@H](O)c3ccc(c(Cl)c3)Oc3cc2cc(c3O[C@@H]2O[C@H](CO)[C@@H](O)[C@H](O)[C@H]2O[C@H]2C[C@](C)(N)[C@H](O)[C@H](C)O2)Oc2ccc(cc2Cl)[C@H]1O | 4

(list continues)
SMILES | GLA inh pH 4.5
CCCn1c(C)nc2c(NC3CCCCC3)nc(C)nc21 | -4
COC(=O)CCCC1=CC2=CC(=O)C(C)(OC(=O)c3cccs3)C(=O)C2=CN1C(CO)CO (stereo unspecified) | 10
COC(=O)N[C@@H](/C=C/c1ccccc1)/C(C(=O)OC)=C(\C)NCc1ccccc1 | 1
COC(=O)[C@H]1C[C@H]2CC[C@H](O)C[C@H]2N1Cc1c(F)cccc1Cl | -2
C[C@@H]1C[C@@H]2[C@H]3CCC4=CC(=O)C=C[C@]4(C)[C@]3(F)[C@@H](O)C[C@]2(C)[C@@]1(O)C(=O)CO | 9
O=c1cc(-c2cccc(F)c2)[nH]c2ccc(Cl)cc12 | -13
CC1(C)CCC2(C(=O)O)CC[C@]3(C)C(=CCC4[C@]5(C)CCC(O)C(C)(C)C5C(O)C[C@]43C)C2C1 (stereo partly specified) | 20
O=c1cc(-c2ccccc2O)oc2cc(O)cc(O)c12 | -4
CCC(=O)N1C2=C(c3ccccc3[C@@H]1CC(=O)Nc1ccc3ccccc3c1)[C@@H]1C(=O)N(c3ccccc3)C(=O)[C@@H]1[C@H](C)C2 | -21
COC(=O)C1=C(C(=O)OC)[C@@H]2Nc3ccccc3[C@@]23C[C@@H](C(=O)OC)N(S(=O)(=O)c2ccc(Br)cc2)C3=N1 | 6
CCOc1ccc(C(=O)c2ccc(OC)c(O)c2O)cc1 | 4
CCCC[C@H]1C(=O)N(c2ccccc2)N(c2ccc(O)cc2)C1=O | 6
COc1cc2ccc(=O)oc2c(OC)c1OC | -20
O=C(O)c1c(Cl)c(Cl)c(Cl)c(Cl)c1-c1c2cc(I)c(=O)c(I)c-2oc2c(I)c(O)c(I)cc12 | -11
O=C(O)c1cc(=O)c2ccc(Cl)cc2[nH]1 | -10&5&-2
CCCCCCCN[C@H]1CCC[C@@H]1CCCCCCC(=O)O | -9
COc1cc(-c2oc3cc(O)ccc3c(=O)c2O)ccc1O | -16
C[C@H](Cc1ccccc1)Nc1ncnc2c1ncn2[C@@H]1O[C@H](CO)[C@H](O)[C@H]1O | -2
NCC[C@H](O)C(=O)N[C@H]1C[C@@H](N)[C@@H](O[C@H]2O[C@@H](CN)[C@@H](O)[C@@H](O)[C@@H]2O)[C@@H](O)[C@@H]1O[C@H]1O[C@@H](CO)[C@@H](O)[C@@H](N)[C@@H]1O | 2
C[C@]12C[C@H](O)CC(CO)(CO)C1[C@H](O)C[C@@]13CC4[C@@H](CC12)[C@@]4(C)C3 (stereo partly specified) | -21
O=C(O)C1(O)CC(O)C(O)C(O)C1 (stereo unspecified) | 3
CCC1=C2CC[C@H]3C(=O)N(c4ccccc4)C(=O)[C@H]3[C@H]2[C@@]2(C)C(=O)N(CC(=O)OC)C(=O)N2C1=O | -6
COC(=O)c1ccc(C23CC2(C(NP(=O)(c2ccccc2)c2ccccc2)c2ccccc2)C3)cc1 (stereo unspecified) | -3
CNC1=CN(O)C(c2ccccc2)=c2cc(Cl)ccc2=N1 | -8
COC(=O)c1cccc(C23CC4(C2)[C@H](CN(CC2CCCCC2)[C@@H]4c2ccccc2)C3c2ccc(Cl)nc2)c1 (stereo partly specified) | 3
COC(=O)c1ccc(C(NC(=O)OCc2ccccc2)/C(=C/[C@@H](C)C(=O)Nc2ccc(OC)cc2)c2cccnc2)cc1 (stereo partly specified) | -2
CC(Cc1ccccc1)C(=O)NCC1CC1 (stereo unspecified) | 1
Cc1ccc(S(=O)(=O)N2CCC(=O)N([C@H](COCc3cccc(C(F)(F)F)c3)Cc3ccccc3)CC2)cc1 | -12
CN(C)c1ccc(-c2nc(NCc3cccnc3)c3ccccc3n2)cc1 | 1
CC(C)C[C@H](NC(=O)[C@H](O)[C@H](N)Cc1ccccc1)C(=O)O | -2
Cc1noc(C)c1-c1nc(Nc2ccncc2)c2ccccc2n1 | 1
C=C1CC23C[C@H]4[C@@H]5[C@@]6(C)C[C@H](OC(=O)c7ccccc7)[C@@H](OC(C)=O)[C@]57[C@@H]2[C@@H](OC(C)=O)[C@H]1[C@@H](O)[C@H]3[C@H]7N4C6 | 3
COC(=O)c1c(-c2cc(OC)c(OC)c(OC)c2)c2ccc(OCc3ccccn3)cc2c(=O)n1-c1ccc(N)cc1 | -18
OC[C@H]1O[C@@H](n2cnc3c(NC4CCCCC4)ncnc32)[C@H](O)[C@@H]1O | -3
NCCCCCc1cnc[nH]1 | -23
CCCCCC[C@@H](O)C/C=C\CCCCCCCC(=O)O | -12
CC(C)CC(N)C(=O)NC(C)C(=O)O (stereo unspecified) | -4
Cc1cccc(CNc2ncncc2-c2cccc(NS(C)(=O)=O)c2)c1 | 4
COc1ccc2[nH]cc(CCNc3nc(-c4ccccc4CN(C)C)nc4ccccc34)c2c1 | 7
CCCn1c(-c2ccc(F)cc2)nc2c(N3CCN(C)CC3)nc(C)nc21 | 1
CCN(CC)CCCCn1c(-c2ccccc2)nc2c(NCc3ccccc3)nc(C)nc21 | -10
COC(=O)N[C@@H](CCc1ccccc1)/C(C(=O)OC)=C(\C)NCc1ccccc1 | -15
O=c1c2ccccc2oc2ccccc12 | ?
COc1cc(C2CC(=O)Oc3ccc(O)cc32)cc(OC)c1OC (stereo unspecified) | -11
CN(C)c1ccc(-c2nc(NC3CCNCC3)c3ccccc3n2)cc1 | 1
CC(Cc1ccccc1)C(=O)NCCc1c[nH]c2ccccc12 (stereo unspecified) | -21
COC(=O)c1ccc(C(NC(=O)OCc2ccccc2)/C(=C/[C@@H](C)C(=O)NCc2nc3ccccc3n2C)c2cccnc2)cc1 (stereo partly specified) | -7
CCCCc1nc2c(c3c1C[C@H](C)OC3)CN(C(=O)N[C@H](C(=O)OC)C(C)C)CC2 | -2
CC(=O)N1C2(C=CC1(C)C(=O)NCc1cc(F)cc(C(F)(F)F)c1)CCCCC2 (stereo unspecified) | -17
CCCCC(CC)C/C=C1\CC(C(=O)OCC)Oc2ccccc21 (stereo unspecified) (tested in a mixture with another compound) | 0
CCC1=C2CC[C@H]3C(=O)N(CC)C(=O)[C@H]3[C@H]2[C@@]2(Cc3ccccc3)C(=NCC3CC3)OC(=O)N2C1=O | 2
CCc1cccc2c3c([nH]c12)[C@@](CC)(CC(=O)O)OCC3 | 3
OB(O)c1csc2ccccc12 | -2
COC1C=CO[C@@]2(C)Oc3c(C)c(O)c4c(O)c(c(C=NN5CCN(C)CC5)c(O)c4c3C2=O)NC(=O)/C(C)=C\C=CC(C)C(O)[C@@H](C)C(O)C(C)[C@H](OC(C)=O)C1C (stereo partly specified) | ?
CC[C@@H]1OC(=O)[C@H](C)[C@H](O[C@@H]2C[C@](C)(OC)[C@H](O)[C@H](C)O2)[C@H](C)[C@H](O[C@@H]2O[C@@H](C)C[C@@H](N(C)C)[C@@H]2O)[C@](C)(O)C[C@H](C)C(=O)[C@H](C)[C@H](O)[C@]1(C)O | 0
CCCCC1=CC2=C(OC(C)=O)C(=O)C(C)(OC(=O)C3CCCC3)C(=O)C2=CO1 (stereo unspecified) | 0
O=C(/C=C\c1ccc(O)c(O)c1)O[C@@H](Cc1ccc(O)c(O)c1)C(=O)O | -15
CSc1cc2c(cc1C(F)(F)F)N(C(=O)Nc1cccnc1)CC2 | 1

Bioassay records: PubChem, National Center for Advancing Translational Sciences (NCATS)
